Menin MLL FP FL: qHTS Assay for Inhibitors Targeting the Menin-MLL Interaction in MLL Related Leukemias: Competition With Fluorescein Labeled MLL-derived Peptide; Fluorescence polarization, fluorescein-MLL peptide displacement from menin; FP activity change, % at 61.4 µM; 290,000 tested, under 10 active; inconclusive = falling polarisation curve, or a change in total fluorescence; inactive = total fluorescence flat and polarisation flat or rising; no compound was filed as active; the % refers to the polarisation; negative = inhibition;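 also: % of control where 0% means no effect; inhibitors lower the polarisation; unlabelled MLL peptide was the positive control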
TRPV1 potentiator: HTS Assay for Compounds that Act as Potentiators of the Vanilloid Receptor 1 | Transient receptor potential cation channel subfamily V member 1 (Homo sapiens), Q8NER1 | TRPV1-expressing cells, Fluo-8 calcium influx, capsaicin EC20 potentiation; host cell line not named in the record; control for the full effect not named in the record | potentiation, % at 8.33 µM | 320,000 compounds, 0.02% hits | AID 540277, 2011; active means potentiation above 80%; inconclusive means 30% to 80%; inactive means below 30%; also: 0% is about no effect
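Cells expressing TRPV1 were dye-loaded with Fluo-8 and read kinetically: 10 s baseline, 3 min after compound (agonist portion), then 2 min after EC20 capsaicin (allosteric enhancer portion). Calcium-bound dye fluorescence at 480/520 nm.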
ClpP mod: qHTS Assay for Activators of ClpP | purified B. subtilis ClpP, FRET peptide cleavage, 20 min | Potency, µM (highest dose often 57.5 µM), without a hit: at the highest dose activity change, negative = active | 340,000 compounds, 1.9% hits; active = well fitted falling curve with a large enough effect; inconclusive = small, poorly fitted or top-dose-only effect; inactive = no such curve, though single readings can be large or run the other way; also: potency is read from the fitted curve at half-maximal effect; the source files actives as falling curves though it sought activators and does not explain the sign; nearly all actives have a fitted effect of over 65% in size; many hits overshoot -100%
Target sequence (P80244 whole entry, looked up): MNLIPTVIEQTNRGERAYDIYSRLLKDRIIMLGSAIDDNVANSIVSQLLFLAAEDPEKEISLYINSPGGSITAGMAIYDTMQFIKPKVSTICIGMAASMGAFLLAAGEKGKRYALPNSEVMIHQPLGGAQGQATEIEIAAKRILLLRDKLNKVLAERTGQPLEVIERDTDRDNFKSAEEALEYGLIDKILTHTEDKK
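ClpP 10 microg/mL final, pH 8 Tris/KCl buffer with BSA, glycerol, Tween-20; compound pinned in; FRET-FV substrate; RT 20 min; Ex320/Em430; ΔFRET vs ADEP 5.8 microM, DMSO, no enzyme.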
gsp antag: qHTS for Antagonists of gsp, the Etiologic Mutation Responsible for Fibrous Dysplasia/McCune-Albright Syndrome: qHTS | gsp-mutant cells, cAMP HTRF, 30 min; control for the full effect not named in the record | Potency, µM (top dose mostly 76.9 µM), inactives show top-dose activity change, negative = inhibition, most hits filed as inhibitors | 340,000 compounds, 0.4% hits | AID 624288, 2012; active = falling curve of any shape with a large fitted effect; inconclusive = falling curve, mostly with a smaller effect; inactive = flat or rising curve; cell line not stated here;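 also: intracellular cAMP measured with PDE inhibitor Ro 20-1724 present during compound exposure; potency is read from the fitted curve at half-maximal effect; % is scaled to controls: 0 for no effect and ±100 for the full control effect; nearly all actives have a fitted effect of over 65% in size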
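HTRF cAMP read-out (cAMP-d2 plus anti-cAMP antibody-K in lysis buffer, 30 min RT). Before lysis, cells are exposed to compounds with […] for 30 min at 37C in DPBS containing Ca/Mg, BSA and Tween 20.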
D2 potentiator: Beta-Arrestin HTS for Positive Allosteric Modulators of the Human D2 Dopamine Receptor: Potentiators; potentiation, % (no concentration beside the values); 360,000 compounds, 0.23% hits; D(2) dopamine receptor (Homo sapiens), P14416; DiscoveRx D2 beta-arrestin cells, luminescence, 90 min; 100% = 57 uM dopamine signal; active = potentiation of 50% or more; inconclusive = 30% to 50%; inactive = 30% or less;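 also: compound concentration not given in the record; tested on top of an EC20 dose of dopamine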
Target sequence (P14416 whole entry, looked up): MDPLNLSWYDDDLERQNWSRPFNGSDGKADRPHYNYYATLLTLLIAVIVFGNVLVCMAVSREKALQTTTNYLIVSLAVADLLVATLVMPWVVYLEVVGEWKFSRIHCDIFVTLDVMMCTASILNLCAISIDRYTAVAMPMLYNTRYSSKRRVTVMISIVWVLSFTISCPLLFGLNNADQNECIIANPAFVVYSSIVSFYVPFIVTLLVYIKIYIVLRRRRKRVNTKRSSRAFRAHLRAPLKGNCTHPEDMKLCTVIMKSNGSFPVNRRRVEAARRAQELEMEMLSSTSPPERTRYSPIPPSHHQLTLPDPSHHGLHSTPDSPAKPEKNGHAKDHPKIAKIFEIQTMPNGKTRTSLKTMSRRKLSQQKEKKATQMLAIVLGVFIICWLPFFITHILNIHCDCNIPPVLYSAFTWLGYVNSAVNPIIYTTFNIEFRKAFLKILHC
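PathHunter beta-arrestin assay in DiscoveRx D2 cells. Compounds were added with an EC20 of dopamine (50 nM final) for 90 min at 37 deg C. Luminescence was read 1 h after detection reagent, with 57 uM dopamine as the EC100 control.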
gsp agonist: qHTS for Agonist of gsp, the Etiologic Mutation Responsible for Fibrous Dysplasia/McCune-Albright Syndrome: qHTS; 340,000 compounds, 0.13% hits; Potency, µM (highest dose often 76.9 µM), for the others: at the top dose activation (cAMP increase), hits mostly activators; AID 624287, 2012; gsp mutant cells, cAMP HTRF, 30 min; control for the full effect not named in the record; active = well fitted activation curve with a large enough effect; inconclusive = small, poorly fitted or top-dose-only effect, or another doubt; inactive = no such curve, though single readings can be large or run the other way; cell line not stated here;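 also: phosphodiesterase inhibitor Ro 20-1724 added with compounds to block cAMP breakdown; potency is read from the fitted curve at half-maximal effect; nearly all actives have a fitted effect of over 60% in size; about a fifth of the inactives were tested at one dose only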
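Cells stably selected in G418 were plated at 2000/well, grown 16-24 hr, then given compounds in DMSO with the PDE inhibitor […] (300 uM solution added) for 30 min at 37C; cAMP was read by HTRF.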
Sfp PPTase inh: qHTS Assay for Inhibitors of Bacillus subtilis Sfp phosphopantetheinyl transferase (PPTase) | Potency, µM, for inactives: max response, negative = inhibition, usual class: inhibitors | 4'-phosphopantetheinyl transferase ffp (Bacillus subtilis), Q9F4F7 | AID 1490, 2009 | Biochemical Sfp PPTase activity, qHTS | 310,000 compounds, 3.5% hits; active = well fitted inhibition curve with a large enough effect; inconclusive = small, poorly fitted or top-dose-only effect, or another doubt; inactive = no such curve, though single readings can be large or run the other way;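 also: the enzyme is Sfp with the accession as filed and its product quenches rhodamine fluorescence; potency is read from the fitted curve at half-maximal effect; 0% = enzyme reaction without inhibitor and -100% = no enzyme wells; top concentration of the series not given in the record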
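Fluorescence-quenching assay: 15 nM Sfp-PPTase preincubated 15 min at room temperature with compound, then 5 uM rhodamine-CoA and 12.5 uM BHQ-2-labelled YbbR peptide added. Fluorescence (ex 525/em 598 nm) read at start and after 30 min; difference gives rate.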
An asterisk follows results filed as active; ? = inconclusive; nt = not tested or not shown; & = joins results of further samples; [ ] = dose if it differs, or a comment.

No.	molecule	Sfp PPTase inh	Menin MLL FP FL	D2 potentiator	gsp agonist	TRPV1 potentiator	gsp antag	ClpP mod
1	CN1C(=S)SC(/[N+]([O-])=C\c2ccco2)C1(C)C (stereo not given)	3%	0.8	-8	-16%	-11	5%	-0.1%
2	O=C(N/N=C/c1ccc(OC2CSC2)cc1)c1ccc(CN2CCOCC2)cc1	7%	-1.1	-7	-12%[15.4 µM]	-10	0%	nt
3	COc1ccc(C2/C=C\CNCC(=O)N2Cc2ccc(F)cc2)cc1 (stereo not given)	4%&11%	8.3&4.3	-7	nt	11	-1%	-0.8%
4	CCC1(CC)C(=O)C2=C3C1[C@H](C(=O)OC)C=C(C(=O)OC)C[C@H]3n1c(=O)n(-c3ccccc3)c(=O)n1[C@H]2C (stereo not given in full)	2%	3.2	19	nt	nt	-4%	1.9%
5	c1ccc(Cn2ncc3ccccc32)cc1	1%	3.7	-4	-56%[inhibitor]	1	-10%	-1.0%
6	CCc1cccc(Nc2cc(C)nc3nc(C)nn23)c1	11%	4.5	-2	5%	-3	3%	0.5%
7	COc1ccccc1C(C)NC(=O)C1CCN(S(=O)(=O)c2cccs2)CC1 (stereo not given)	nt	nt	-2	-11%	17	-4%	-0.8%
8	COc1ccc(OC)c(C2=NS(=O)(=O)N(C)C(C(=O)NCc3cccs3)=C2)c1	2%	0.2	-16	?	28	?	0.7%
9	CCCOc1ccc(N2C(=O)CC(N(CCc3ccc(OC)cc3)C(=O)c3ccccc3)C2=O)cc1 (stereo not given)	?	3.6	19	4%[15.4 µM]	-9	-1%	-4.2%
10	O=C(NCCCc1nc2ccccc2[nH]1)c1ccco1	7%	nt	-10	-9%	-8	-2%	-2.0%
11	Cc1cc(C)c(NC(=O)CSc2nc(=O)n(CCN3CCOCC3)c3c2CCCC3)c(C)c1	nt	nt	-5	69%[15.4 µM]	8	-12%	1.7%
12	COc1ccc(OC)c(C(=O)c2ccc(C(=O)c3cc(OC)ccc3OC)cc2)c1	?	0.9	-19	-12%	3	1%	-9.4%
13	CCCN(CCC)C(=O)CSc1nc2ccccc2c(=O)n1CC1COc2ccccc2O1 (stereo not given)	7%	-0.7	2	-32%[inhibitor]	-8	-10%	-7.0%
14	CCOC(=O)c1cc(-c2nnc(-c3cc(OC)c(OC)c(OC)c3)o2)c(C)nc1C	nt	nt	-1	22%	nt	4%	?
15	COc1ccccc1Nc1ccc(C(=O)O)cc1[N+](=O)[O-]	14%	0.3	-14	0%	-3	?	nt
16	COc1ccccc1N1CCN(C(=O)c2c(-c3ccccc3Cl)noc2C)CC1	1%	4.2	7	-55%[inhibitor]	-12	-5%[15.4 µM]	0.1%
17	CCOC(=O)C1(Cc2cccc(F)c2)CCN(CC2CC2)CC1	1%	-0.6	-13	-2%	0	-1%	nt
18	Cc1ccc2[nH]c(=O)c(CNS(=O)(=O)c3ccccc3)c(-c3ccccc3)c2c1	8%	1.7	8	-42%[inhibitor]	0	-12%	-8.8%
19	CCN(CC)c1ccc(S(=O)(=O)N2CCOCC2)cc1NC(=O)CN1CCc2ccccc2C1	11%	-0.9	-6	-11%[15.4 µM]	0	-15%	nt
20	C=C(C)C(=O)NNc1ccccc1	-11%	-0.8	-5	-28%	?	5%	nt
21	Cc1cc(C)c2cc(CN(CCO)C(=O)NC3CCCCC3)c(=O)[nH]c2c1	1%	-0.2	-4	?	6	-11%	-5.0%
22	O=C1CCN(C(=O)c2ccccc2)C2CCCCC12 (stereo not given)	20%	0.6	-5	-14%	1	4%	1.6%
23	Nc1ccc(C(=O)Nc2cccc(N)c2)cc1	8%	5.7	1	-25%	13	-9%	0.8%
24	CCOc1ccc2[nH]c(=O)c(CN(Cc3cccs3)C(CC)c3nnnn3C(C)(C)CC)cc2c1 (stereo not given)	-5%	3.2	9	-1%	4	-8%	?
25	O=C(CCc1nnc2ccc(NCc3ccco3)nn12)N1CCN(c2ccc(F)cc2)CC1	1%	4.5	-7	?	2	1%	-5.0%
26	CCOC(=O)Cc1csc(NC(=O)CSc2nccn2C)n1	-5%	nt	-3	5%	10	3%	-6.2%
27	Clc1ccccc1Nc1c2c(nc3ncnn13)CCC2	3%	-0.1	-3	-20%	-10	9%	0.0%
28	O=C(CC1C(=O)NCCN1Cc1ccc(F)cc1)NCCCn1cccn1 (stereo not given)	16%	-15	-7	16%	-7	13%	-3.1%
29	COc1ccc2nc(SC(C)C(=O)NCC(=O)Nc3ccc(F)c(F)c3F)[nH]c2c1 (stereo not given)	nt	nt	-27	-1%	-1	-4%	-0.3%
30	CCOC(=O)N1CCN(c2nc(-c3cccc(OC)c3)cc(C(F)(F)F)n2)CC1	-17%	1.9	1	12%	-14	12%	28µM*
31	CCOC(=O)c1cnc2cc(-c3ccc(C(C)(C)C)cc3)nn2c1N	16%	-3.8	-5	4%	-28	1%	-7.2%
32	CCOc1ccccc1NS(=O)(=O)c1cn(C)nc1C	16%	-3.1	3	-9%[15.4 µM]	5	18%	nt
33	O=c1cc(NS(=O)(=O)c2ccccc2)nc(SCc2ccccc2Cl)[nH]1	14%	4.2	13	-6%	5	1%	0.5%
34	N#Cc1ccccc1S(=O)(=O)N1CCN(C(=O)CCC2CCCC2)CC1	nt	nt	-2	12%	-9	1%	-0.4%
35	Cc1ccc(Cl)c2c1NC(=O)C2(O)CC(=O)c1ccc(Br)cc1 (stereo not given)	-7%	4.6	-5	-17%	-10	-7%	1.3%
36	O=C(NC1CCCCC1)C1CN(S(=O)(=O)c2ccccc2)CCN1S(=O)(=O)c1ccccc1 (stereo not given)	19%	5.2	2	-1%	-9	-12%	0.9%
37	COc1ccc2oc(C(=O)OCC(=O)NC3(C#N)CCCC3)c(C)c2c1	nt	nt	11	?	-19	6%	25µM*
38	COC(=O)CSc1nc(C)c(C(C)=O)cc1C#N	-2%	4.2	-9	-41%[inhibitor]	-6	-7%	0.2%
39	Cc1ccc(NC(=O)Cn2ccsc2=N)cc1S(=O)(=O)N(C)C	-1%	-2.5	-15	26%	-6	3%	nt
40	c1ccc(C2(Cn3ccc4ccccc43)OCCO2)cc1	4%	2.6	3	-12%	5	-3%	-1.0%
41	Clc1ccc(OCCN2CCN(c3ncnc4sccc34)CC2)cc1	-7%	-0.8	-27	1%	-47	?	1.5%
42	COc1ccc(C(CNC(=O)C(=O)NC2CCCC2)N2CCN(C)CC2)cc1 (stereo not given)	nt	nt	-4	1%[15.4 µM]	0	10%	nt
43	Cc1cc(C)n2nc(CC(=O)NC3CCCC(C)C3C)nc2n1 (stereo not given)	15%	1.5	-1	4%	9	-1%	-4.8%
44	CCC(=O)N1CCc2cc(S(=O)(=O)N3CCCCC3CC)ccc21 (stereo not given)	1%	nt	-12	?	-2	-1%	-0.7%
45	COc1ccc(NC(=O)COc2coc(CN3CCN(c4ccccc4)CC3)cc2=O)cc1	nt	nt	0	19%	1	6%	28µM*
46	Cc1ccccc1N(CC(N)=O)S(C)(=O)=O	3%	1.5	-13	3%	5	19%	0.6%
47	O=C(COC(=O)c1ccc(Br)cc1)NCCN1C(=O)CSC1=O	0%	5.0	-10	-5%[15.4 µM]	11	7%	nt
48	Cc1cc(C(=O)NCCCN2CCOCC2)n(-c2ccccc2)n1	10%	-0.4	-5	30%	6	8%	-0.3%

The last five entries of the part before come first, to join the parts:
No.	molecule	Sfp PPTase inh	Menin MLL FP FL	D2 potentiator	gsp agonist	TRPV1 potentiator	gsp antag	ClpP mod
44	CCC(=O)N1CCc2cc(S(=O)(=O)N3CCCCC3CC)ccc21 (stereo not given)	1%	nt	-12	?	-2	-1%	-0.7%
45	COc1ccc(NC(=O)COc2coc(CN3CCN(c4ccccc4)CC3)cc2=O)cc1	nt	nt	0	19%	1	6%	28µM*
46	Cc1ccccc1N(CC(N)=O)S(C)(=O)=O	3%	1.5	-13	3%	5	19%	0.6%
47	O=C(COC(=O)c1ccc(Br)cc1)NCCN1C(=O)CSC1=O	0%	5.0	-10	-5%[15.4 µM]	11	7%	nt
48	Cc1cc(C(=O)NCCCN2CCOCC2)n(-c2ccccc2)n1	10%	-0.4	-5	30%	6	8%	-0.3%
49	Cc1ccc(-c2cc(C(=O)NCCCn3ccnc3)no2)cc1	17%	-9.3	-18	9%	-9	-6%	-1.2%
50	COc1cccc(NC(C)C(=O)Nc2cc([N+](=O)[O-])ccc2Cl)c1 (stereo not given)	8%	-9.0	-16	7%[15.4 µM]	3	-9%	-3.0%
51	CCC(=O)Nc1cccc(-c2nc3ccccc3c(=O)o2)c1	14%	3.2	-2	-36%[inhibitor]	17	-6%	1.6%
52	C[C@@H]1NC(=O)N(c2ccc(F)cc2)C1=O	22%	5.0	-5	20%[15.4 µM]	-5	-7%	-3.8%
53	CC(C)n1nnc2ccccc2c1=O	11%	-3.3	-6	3%	-16	1%	1.9%
54	CN(CCC1CCOCC1)C(=O)CC1C(=O)NCCN1Cc1ccoc1 (stereo not given)	11%	-6.0	1	-8%	2	11%	nt
55	C=C[C@@H]1c2ccccc2N(S(=O)(=O)c2ccc(C)cc2)[C@H](c2ccccc2)C1(C#N)C#N	nt	nt	-6	nt	2	-1%	-0.3%&-0.6%
56	CC(C)C(=O)Nc1ccc(NC(=O)c2cccc3c(Br)cccc23)cc1	7%	-7.6	0	24%	7	11%	nt
